ClpP mod – qHTS Assay for Activators of ClpP | purified B. subtilis ClpP, FRET peptide cleavage, 20 min | Potency, µM (top dose mostly 57.5 µM), inactives show at the top dose activity change, negative = active | 340,000 compounds, 1.9% hits; active = well fitted falling curve with a large enough effect; inconclusive = small, poorly fitted or top-dose-only effect; inactive = no such curve, though single readings can be large or run the other way; note: potency is the fitted concentration of half-maximal effect; the source files actives as falling curves though it sought activators and does not explain the sign; nearly all actives have a fitted effect of over 65% in size; many hits overshoot -100%
Target sequence (P80244 whole entry, looked up): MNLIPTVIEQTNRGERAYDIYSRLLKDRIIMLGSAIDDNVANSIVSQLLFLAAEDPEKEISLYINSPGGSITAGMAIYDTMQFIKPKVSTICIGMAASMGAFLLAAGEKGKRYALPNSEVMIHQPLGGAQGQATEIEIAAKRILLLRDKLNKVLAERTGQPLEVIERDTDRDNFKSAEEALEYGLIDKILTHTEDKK
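ClpP 10 microg/mL final, pH 8 Tris/KCl buffer with BSA, glycerol, Tween-20; compound pinned in; FRET-FV substrate; RT 20 min; Ex320/Em430; ΔFRET vs ADEP 5.8 microM, DMSO, no enzyme.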
Menin MLL FP FL – qHTS Assay for Inhibitors Targeting the Menin-MLL Interaction in MLL Related Leukemias: Competition With Fluorescein Labeled MLL-derived Peptide; Fluorescence polarization, fluorescein-MLL peptide displacement from menin; FP activity change, % at 61.4 µM; 290,000 tested, under 10 active; AID 1766, 2009; inconclusive = falling polarisation curve, or a change in total fluorescence; inactive = total fluorescence flat and polarisation flat or rising; no compound was filed as active; the % refers to the polarisation; negative = inhibition;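 note: % of control where 0% means no effect; inhibitors lower the polarisation; unlabelled MLL peptide was the positive control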
TRPML1 blocker – qHTS for Inhibitors of the Human Mucolipin Transient Receptor Potential 1 (TRPML1) | 390,000 compounds, 0.02% hits | activity change, negative = inhibition, % (no concentration beside the values) | TRPML1-inducible cells, Ca2+ dye fluorescence, FDSS; stronger effect = lower value; inhibition of EC80 agonist-evoked calcium signal; in the data active means activity change below about -50%; inconclusive means about -30% to -50%; inactive means above about -30%;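 note: stimulus is agonist 54-4 at its EC80 concentration; % is set by controls: 0 for no effect and ±100 for the full control effect; compound concentration not given in the record; the text of the record puts the active cut at -80%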
Target sequence (Q9GZU1 whole entry, looked up): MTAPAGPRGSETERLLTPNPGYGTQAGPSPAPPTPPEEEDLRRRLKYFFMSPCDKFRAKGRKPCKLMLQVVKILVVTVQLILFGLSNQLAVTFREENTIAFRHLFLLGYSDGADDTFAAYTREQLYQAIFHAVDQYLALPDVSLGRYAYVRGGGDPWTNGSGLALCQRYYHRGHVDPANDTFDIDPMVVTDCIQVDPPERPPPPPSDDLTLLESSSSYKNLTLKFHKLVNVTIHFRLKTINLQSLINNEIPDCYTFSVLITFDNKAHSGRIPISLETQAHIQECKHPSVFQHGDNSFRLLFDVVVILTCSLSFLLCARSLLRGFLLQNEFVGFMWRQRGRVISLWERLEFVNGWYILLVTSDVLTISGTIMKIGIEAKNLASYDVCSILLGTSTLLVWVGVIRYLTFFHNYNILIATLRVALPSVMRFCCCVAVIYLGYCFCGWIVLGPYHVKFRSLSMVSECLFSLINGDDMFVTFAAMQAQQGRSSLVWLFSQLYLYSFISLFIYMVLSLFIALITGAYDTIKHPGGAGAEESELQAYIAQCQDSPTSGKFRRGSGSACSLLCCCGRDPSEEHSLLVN
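Calcium fluorescence in TRPML1-DL cells induced overnight with Tet: a 110 s read after compound pin addition, then a 110 s antagonist read after challenge with 54-4 at 4 uM final (EC80).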
Sfp PPTase inh – qHTS Assay for Inhibitors of Bacillus subtilis Sfp phosphopantetheinyl transferase (PPTase); Biochemical Sfp PPTase activity, qHTS; Potency, µM, without a hit: max response, negative = inhibition, actives largely listed as inhibitors; 310,000 compounds, 3.5% hits; active = well fitted inhibition curve with a large enough effect; inconclusive = small, poorly fitted or top-dose-only effect, or another doubt; inactive = no such curve, though single readings can be large or run the other way;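 note: the enzyme is Sfp with the accession as filed and its product quenches rhodamine fluorescence; potency is the fitted concentration of half-maximal effect; 0% = enzyme reaction without inhibitor and -100% = no enzyme wells; top concentration of the series not given in the record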
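Compounds were incubated with enzyme (final 15 nM) for 15 min at room temperature before substrate addition started the reaction. Fluorescence at 525 nm excitation, 598 nm emission was recorded immediately and after 30 minutes.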
gsp agonist – qHTS for Agonist of gsp, the Etiologic Mutation Responsible for Fibrous Dysplasia/McCune-Albright Syndrome: qHTS | Potency, µM (highest dose often 76.9 µM), inactives show top-dose activation (cAMP increase), most hits filed as activators | gsp mutant cells, cAMP HTRF, 30 min; control for the full effect not named in the record | 340,000 compounds, 0.13% hits; active = well fitted activation curve with a large enough effect; inconclusive = small, poorly fitted or top-dose-only effect, or another doubt; inactive = no such curve, though single readings can be large or run the other way; cell line not stated here;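 note: phosphodiesterase inhibitor Ro 20-1724 added with compounds to block cAMP breakdown; potency is the fitted concentration of half-maximal effect; nearly all actives have a fitted effect of over 60% in size; about a fifth of the inactives were tested at one dose only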
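Cells stably selected in G418 were plated at 2000/well, grown 16-24 hr, then given compounds in DMSO with the PDE inhibitor […] (300 uM solution added) for 30 min at 37C; cAMP was read by HTRF.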
gsp antagonist – qHTS for Antagonists of gsp, the Etiologic Mutation Responsible for Fibrous Dysplasia/McCune-Albright Syndrome: qHTS | Potency, µM (doses to about 76.9 µM), inactives show at the highest dose activity change, negative = inhibition, most hits filed as inhibitors | gsp-mutant cells, cAMP HTRF, 30 min; control for the full effect not named in the record | 340,000 compounds, 0.4% hits; active = falling curve of any shape with a large fitted effect; inconclusive = falling curve, mostly with a smaller effect; inactive = flat or rising curve; cell line not stated here;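 note: intracellular cAMP measured with PDE inhibitor Ro 20-1724 present during compound exposure; potency is the fitted concentration of half-maximal effect; % is set by controls: 0 for no effect and ±100 for the full control effect; nearly all actives have a fitted effect of over 65% in size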
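HTRF cAMP read-out (cAMP-d2 plus anti-cAMP antibody-K in lysis buffer, 30 min RT). Before lysis, cells are exposed to compounds with […] for 30 min at 37C in DPBS containing Ca/Mg, BSA and Tween 20.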
TRPV1 potentiator – HTS Assay for Compounds that Act as Potentiators of the Vanilloid Receptor 1. Transient receptor potential cation channel subfamily V member 1 (Homo sapiens), Q8NER1. TRPV1-expressing cells, Fluo-8 calcium influx, capsaicin EC20 potentiation; host cell line not named in the record; control for the full effect not named in the record. potentiation, % at 8.33 µM. 320,000 compounds, 0.02% hits. AID 540277, 2011; active means potentiation above 80%; inconclusive means 30% to 80%; inactive means below 30%; note: 0% is about no effect
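Cells expressing TRPV1 were dye-loaded with Fluo-8 and read kinetically: 10 s baseline, 3 min after compound (agonist portion), then 2 min after EC20 capsaicin (allosteric enhancer portion). Calcium-bound dye fluorescence at 480/520 nm.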
Numbers without * were called inactive; u = inconclusive; x = not tested or not shown; [ ] = remark or other dose.

SMILES	ClpP mod	Menin MLL FP FL	TRPML1 blocker	Sfp PPTase inh	gsp agonist	gsp antagonist	TRPV1 potentiator
CCCc1cc(=O)oc2cc(OCC(=O)N3C[C@H]4C[C@@H](C3)c3cccc(=O)n3C4)ccc12	4.8%	-4.1	x	22%	x	-5%	4
Cc1noc(C)c1COc1ccc(C(=O)NCC2(N(C)C)CCCCC2)cc1	-1.5%	x	1	x	-40%[inhibitor]	x	x
CCN1CCN(Cc2cc(C(C)(C)C)c(O)c(C(C)(C)C)c2)CC1	x	3.4	x	u	x	x	-9
Cc1cc(C(=O)CS(=O)(=O)c2ccccc2)cc(C)c1OC(=O)N(C)C	x	-0.3	25	10%	6%	-5%	13
COc1ccc(NC(=O)CN(C)C(=O)CSC(c2ccccc2)c2ccccc2)cc1	-1.3%	x	43	x	5%	-10%	9
CCCCN1C(=O)NC(=O)C2(Cc3ccccc3N3CCOCC32)C1=O (stereo not given)	-1.1%	4.7	18	-26%	10%	-11%	9
O=C(/C=C/c1c[nH]c2ccccc12)c1c(O)n(CCc2ccccc2)c(=O)[nH]c1=O	x	u	-2	35%	1%[15.4 µM]	-12%	-3
Brc1ccc(Oc2cc(Br)c(Br)cc2Br)c(Br)c1	0.5%	x	-3	x	x	-3%	-1
CCC(CO)(C(=O)OC1CC2CCC(C1)N2C)c1ccccc1 (stereo not given)	-2.1%	-1.7	x	8%	u	-5%	4
O=C(COc1ccc(S(=O)(=O)N2CCOCC2)cc1)N1CCN(Cc2ccc3c(c2)OCO3)CC1	-1.7%	1.8	13	7%	-40%[inhibitor]	-18%	3
CCCCN1CCS(=O)(=O)N(Cc2ccccc2Br)CC(C(=O)OC)C1 (stereo not given)	1.9%	x	-2	x	x	u	x
Cc1ccc(-c2nc3ccccc3c(=O)n2-c2ncccc2C)cc1	0.2%	-0.9	-6	11%	-11%	-7%	1
CCOC(=O)c1ccc2c(c1)N(CC)C(=O)c1ccccc1S2	-5.0%	1.4	3	-13%	-30%[inhibitor]	-2%	1
COc1ccc(/C=C/C=C2C(=O)NC(=S)NC2=O)cc1	2.8%	x	4	x	u	-3%	x
CCOc1ccc(S(=O)(=O)N2CCC(C(=O)NCc3cccnc3)CC2)cc1Cl	x	-7.4	-3	10%	12%	4%	-21
Cn1c(N)c(C(=O)COC(=O)Cc2ccccc2)c(=O)n(C)c1=O	x	x	-5	x	46%	7%	x
CCC(=NC1CCN(Cc2ccccc2)CC1)c1c(O)[nH]c(=O)[nH]c1=O	-0.5%	1.7	-19	-12%	-1%	-3%	-7
CC(=O)NC1N=C(C)N(c2ccccc2)C1=O (stereo not given)	-2.1%	-29	9	40µM*	4%	3%[15.4 µM]	10
COc1ccccc1C1C([N+](=O)[O-])=C(N)Oc2c1c(=O)oc1ccccc21 (stereo not given)	2.0%	6.6	13	-20%	12%[15.4 µM]	u	-10
O=C(Nc1ccc(OC(=O)N2CCCCC2)cc1)N1CCOCC1	x	-0.4	27	-7%	27%[15.4 µM]	6%	0
CC(C)NS(=O)(=O)c1ccc(OCC(=O)N2CCN(Cc3ccccc3)CC2)cc1	-2.1%	x	-16	x	1%	0%	x
Cc1cccc(NP2(=O)NCCCN2)c1	x	x	-24	x	-3%	2%	x
CC(C)(C)C(=O)C(Oc1ccc(Cl)cc1)n1cncn1 (stereo not given)	-1.6%	4.0	20	10%	-4%[15.4 µM]	10%	x
CNC(C(=O)c1ccccc1)C(OC(C)=O)c1cccc([N+](=O)[O-])c1 (stereo not given)	-0.9%	1.4	-13	22%	-9%[15.4 µM]	0%	x
Nc1c(C(=O)NC2CCCC2)c2nc3ccccc3nc2n1CC1CCCO1 (stereo not given)	-28%	10	13	-13%	4%[15.4 µM]	-17%	-12
OC(CCNCCc1c[nH]c2ccccc12)C(F)(F)F (stereo not given)	x	2.6	40	3%	-4%[15.4 µM]	13%	-33
CCCC(=O)C1C(=O)NC(=O)NC1=O	-1.1%	3.0	-4	-54%	-37%[inhibitor]	-2%	21
CCOP(=S)(OCC)Oc1ccc2c(C)c(Cl)c(=O)oc2c1	-3.2%	2.2	-18	8%	-15%[15.4 µM]	-3%	x
Cc1ccc(OCC(=O)N2CCCC(N3CCN(c4ccc(F)cc4)CC3)C2)cc1 (stereo not given)	-1.3%	5.9	-1	4%	-5%	-17%	-3
COc1cccc(CNC2CN3CCC2CC3)c1OC (stereo not given)	-0.7%	4.6	-4	3%	-37%	8%	7

Among those listed so far, four contain an aryl methoxy group:
SMILES	ClpP mod	Menin MLL FP FL	TRPML1 blocker	Sfp PPTase inh	gsp agonist	gsp antagonist	TRPV1 potentiator
COc1ccc(NC(=O)CN(C)C(=O)CSC(c2ccccc2)c2ccccc2)cc1	-1.3%	x	43	x	5%	-10%	9
COc1ccc(/C=C/C=C2C(=O)NC(=S)NC2=O)cc1	2.8%	x	4	x	u	-3%	x
COc1ccccc1C1C([N+](=O)[O-])=C(N)Oc2c1c(=O)oc1ccccc21 (stereo not given)	2.0%	6.6	13	-20%	12%[15.4 µM]	u	-10
COc1cccc(CNC2CN3CCC2CC3)c1OC (stereo not given)	-0.7%	4.6	-4	3%	-37%	8%	7

Other structures:
SMILES	ClpP mod	Menin MLL FP FL	TRPML1 blocker	Sfp PPTase inh	gsp agonist	gsp antagonist	TRPV1 potentiator
CC(=O)C(Sc1ncnc2c1nnn2-c1ccc(F)cc1)C(=O)N(C)C (stereo not given)	3.3%	7.1	3	10µM*	0%	-2%	5
C[N+]1(C)C2CCC1CC(OC(=O)c1c[nH]c3ccccc13)C2 (stereo not given)	-1.0%	-0.6	-2	-5%	x	3%	-4
COc1cc(N2CCOCC2)ccc1C=C1C(=O)NC(=O)NC1=O	x	u	-2	56µM*	4%[15.4 µM]	-2%	29
COC(=O)C1=C(c2ccc(-c3ccccc3)c(F)c2)C[C@@H]2CC[C@H]1N2C(=O)N1CCOCC1	-2.2%	x	54	x	24%	-16%	-13
NC1CCCCC1N=Cc1c(O)n(Cc2ccc(F)cc2)c(=O)[nH]c1=O (stereo not given)	1.6%	-1.3	6	-5%	-20%	-3%	15
CCOP(=O)(Cc1ccc(C#N)o1)OCC	x	-3.8	15	8%	-14%[15.4 µM]	4%	-2

Entries of single compounds, looked up by structure. Values in the order: ClpP mod	Menin MLL FP FL	TRPML1 blocker	Sfp PPTase inh	gsp agonist	gsp antagonist	TRPV1 potentiator
CCOP(=O)(Cc1ccc(C#N)o1)OCC reads x	-3.8	15	8%	-14%[15.4 µM]	4%	-2
NC1CCCCC1N=Cc1c(O)n(Cc2ccc(F)cc2)c(=O)[nH]c1=O (stereo not given) reads 1.6%	-1.3	6	-5%	-20%	-3%	15
C[N+]1(C)C2CCC1CC(OC(=O)c1c[nH]c3ccccc13)C2 (stereo not given) reads -1.0%	-0.6	-2	-5%	x	3%	-4

Nothing new here: entries from further up.
SMILES	ClpP mod	Menin MLL FP FL	TRPML1 blocker	Sfp PPTase inh	gsp agonist	gsp antagonist	TRPV1 potentiator
CCCc1cc(=O)oc2cc(OCC(=O)N3C[C@H]4C[C@@H](C3)c3cccc(=O)n3C4)ccc12	4.8%	-4.1	x	22%	x	-5%	4
Cc1noc(C)c1COc1ccc(C(=O)NCC2(N(C)C)CCCCC2)cc1	-1.5%	x	1	x	-40%[inhibitor]	x	x
CCN1CCN(Cc2cc(C(C)(C)C)c(O)c(C(C)(C)C)c2)CC1	x	3.4	x	u	x	x	-9
Cc1cc(C(=O)CS(=O)(=O)c2ccccc2)cc(C)c1OC(=O)N(C)C	x	-0.3	25	10%	6%	-5%	13

Assay outcomes as filed in PubChem.

Not all compounds are listed; rates above refer to the full screens.
